Screening data as filed in PubChem.
Imprint erasure – qHTS Assay for Compounds that Induce Erasure of Genomic Imprints; mouse ES Peg3-LacZ reporter, beta-gal luminescence, 40 h; Potency, µM (titrated, usually from 60.7 µM), without a hit: at the top dose activity change, positive = activation, usual class: activators; hit rate 0.02% among 110,000; AID 1948, 2009; active means well fitted activation curve with a large enough effect; inconclusive means small, poorly fitted or top-dose-only effect; inactive means no such curve, though single readings can be large or run the other way;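 further: 0% = negative control wells on the plate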
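Gelatin-coated wells received 300 freshly trypsinized female ES cells with a Peg3LacZ-Neo reporter on the maternal allele, then incubated 40 hours at 37C. BetaGlo was added for 5 minutes at room temperature before a single luminescence read.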
IkB signaling – IkB Signaling; ABC-DLBCL IkBa-CBG/CBR dual luciferase ratio, 4 h; response scale: scaled: untreated 0%, proteasome inhibitor 100%; Potency, µM (highest dose often 57.1 µM), for the others: at the top dose IkBa stabilization activation; hit rate 0.04% among 110,000; active means well fitted curve in the direction sought with a large enough effect in the signal ratio, not every such curve was filed as active; inconclusive means small, poorly fitted or top-dose-only effect, or a change in a side signal; the % refers to the signal ratio;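 further: the direction sought is a rising ratio; 0% = basal untreated cells and 100% = reference inhibitor full response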
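Luminescence ratio of IκBα-fused green versus native red beetle luciferase in OCI-Ly3 cells, 4 h post-doxycycline with compound; red signal alone, scaled from basal (0%) to zero light (-100%), flagged nonspecific or cytotoxic effects.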
* hit, by the source's call; ? = inconclusive; nt = no result given; & = joins results of further samples; [ ] = remark or other dose. Potency means the concentration at half of the fitted maximal effect. A portion of the library, and most or all hits are left out here.

SMILES | Imprint erasure | IkB signaling
O=C(CCCn1c(=S)[nH]c2cc3c(cc2c1=O)OCO3)N1CCN(c2ccc(Cl)cc2)CC1 | -15% | 5.5%
CCCC(C)CO (stereo not drawn) | 4% | -0.2%
O=[N+]([O-])c1ccc2nc[nH]c2c1 | 2% | 0.8%
CCCNC(C)(C)COC(=O)c1ccccc1 | -5%[16.8 µM] | 0.2%[25.6 µM]
CCCCc1oc2ccccc2c1C(=O)c1cc(I)c(OCCN(CC)CC)c(I)c1 | -21% | -1.4%[25.6 µM]
C[N+](C)(C)CCO | -6%&-10% | -3.6%
CCN(CC)CCOC(=O)C(Cc1cccc2ccccc12)CC1CCCO1 (stereo not drawn) | -27% | nt
NC(Cc1ccc(O)c(O)c1)C(=O)O (stereo not drawn) | -18% | nt
CN(C)C(CNc1nnnn1-c1ccccc1)c1ccco1 (stereo not drawn) | 11% | ?
CO[C@@]1(NC(=O)Cc2cccs2)C(=O)N2C(C(=O)O)=C(COC(N)=O)CSC21 (stereo partly drawn) | -1% | nt
Oc1ccc(Cl)cc1Cc1cc(Cl)ccc1O | -23%&4% | ?
C=C1C[C@@]23C[C@@]1(O)CCC2[C@@]12C=CC(O)[C@](C)(C(=O)O1)C2C3C(=O)O (stereo partly drawn) | 13% | nt
O=C(O)CCCC[C@H]1SC[C@H]2NC(=O)N[C@@H]21 | 5%[16.8 µM] | 1.0%[25.6 µM]
COc1ccc(C(=O)OCc2cc(=O)n3nc(C4CC4)sc3n2)cc1OC | -6%[10.9 µM] | -1.3%
CC1=C(C(=O)O)N2C(=O)C(NC(=O)C(N)C3=CCC=CC3)C2SC1 (stereo not drawn) | -25% | nt
C[C@@H]1C[C@H](OC(=O)[C@@H](O)c2ccccc2)CC(C)(C)N1C | -6%[16.8 µM] | 1.1%[25.6 µM]
COCCn1c(SCC(=O)c2ccc(C)cc2)nc2cc(C(=O)NC3CCCC3)ccc2c1=O | -11%[10.9 µM] | 1.3%
CCN(CC)CCOc1ccc(/C(=C(\Cl)c2ccccc2)c2ccccc2)cc1 | -21% | 2.0%[25.6 µM]
Cn1cc[nH]c1=S | -1% | 1.5%[25.6 µM]
CC(C)NC[C@H](O)c1cc(O)cc(O)c1 | ? | 2.0%[25.6 µM]

Exported with two lines to a compound: part of the list above.
The line under a structure holds: Imprint erasure | IkB signaling
O=C(CCCn1c(=S)[nH]c2cc3c(cc2c1=O)OCO3)N1CCN(c2ccc(Cl)cc2)CC1
→ -15% | 5.5%
CCCC(C)CO (stereo not drawn)
→ 4% | -0.2%
O=[N+]([O-])c1ccc2nc[nH]c2c1
→ 2% | 0.8%
CCCNC(C)(C)COC(=O)c1ccccc1
→ -5%[16.8 µM] | 0.2%[25.6 µM]
CCCCc1oc2ccccc2c1C(=O)c1cc(I)c(OCCN(CC)CC)c(I)c1
→ -21% | -1.4%[25.6 µM]
C[N+](C)(C)CCO
→ -6%&-10% | -3.6%
CCN(CC)CCOC(=O)C(Cc1cccc2ccccc12)CC1CCCO1 (stereo not drawn)
→ -27% | nt
NC(Cc1ccc(O)c(O)c1)C(=O)O (stereo not drawn)
→ -18% | nt
CN(C)C(CNc1nnnn1-c1ccccc1)c1ccco1 (stereo not drawn)
→ 11% | ?
CO[C@@]1(NC(=O)Cc2cccs2)C(=O)N2C(C(=O)O)=C(COC(N)=O)CSC21 (stereo partly drawn)
→ -1% | nt
Oc1ccc(Cl)cc1Cc1cc(Cl)ccc1O
→ -23%&4% | ?
C=C1C[C@@]23C[C@@]1(O)CCC2[C@@]12C=CC(O)[C@](C)(C(=O)O1)C2C3C(=O)O (stereo partly drawn)
→ 13% | nt
O=C(O)CCCC[C@H]1SC[C@H]2NC(=O)N[C@@H]21
→ 5%[16.8 µM] | 1.0%[25.6 µM]
COc1ccc(C(=O)OCc2cc(=O)n3nc(C4CC4)sc3n2)cc1OC
→ -6%[10.9 µM] | -1.3%
CC1=C(C(=O)O)N2C(=O)C(NC(=O)C(N)C3=CCC=CC3)C2SC1 (stereo not drawn)
→ -25% | nt
C[C@@H]1C[C@H](OC(=O)[C@@H](O)c2ccccc2)CC(C)(C)N1C
→ -6%[16.8 µM] | 1.1%[25.6 µM]
COCCn1c(SCC(=O)c2ccc(C)cc2)nc2cc(C(=O)NC3CCCC3)ccc2c1=O
→ -11%[10.9 µM] | 1.3%
CCN(CC)CCOc1ccc(/C(=C(\Cl)c2ccccc2)c2ccccc2)cc1
→ -21% | 2.0%[25.6 µM]
Cn1cc[nH]c1=S
→ -1% | 1.5%[25.6 µM]
CC(C)NC[C@H](O)c1cc(O)cc(O)c1
→ ? | 2.0%[25.6 µM]

Remaining list, next part:
SMILES | Imprint erasure | IkB signaling
Clc1cc(Cl)c(Cl)c(Cl)c1Cl | -3% | 0.6%
O=C1NS(=O)(=O)c2ccccc21 | -15% | nt
Cc1nc(=O)c(-c2ccccc2)c(C)n1-c1ccc(O)c(C(=O)O)c1 | -4% | 2.2%
COC(=O)c1ccc(CNC(=O)CSc2nc3sc(C)c(C)c3c(=O)n2C)o1 | -15% | 0.7%
O=C(Cn1cccc1)NCc1cccs1 | -9% | -0.3%
O=C(CSc1nc(-c2cccs2)cc(C(F)(F)F)n1)NCCCn1ccnc1 | -14% | 1.0%
CC(C)CN(C(=O)COC(=O)c1cc2ccccc2oc1=O)C1CCS(=O)(=O)C1 (stereo not drawn) | -1% | 0.3%
C/C=C\c1ccc(OC)cc1 | 3% | -0.8%
O=C(Oc1ccccc1)c1ccccc1O | 21% | -0.6%
O=C(O)COCCN1CCN(C(c2ccccc2)c2ccc(Cl)cc2)CC1 (stereo not drawn) | -13% | nt
O=S(=O)(O)c1ccccc1 | 0% | -0.2%
N=C(N)c1ccc(OCCCCCOc2ccc(C(=N)N)cc2)cc1 (tested in a mixture with another compound) | -46%[inhibitor] | -2.2%
O=c1c(O)c(-c2ccc(O)cc2)oc2cc(O)cc(O)c12 | -12% | ?
CC(C)C[C@H]1C(=O)N2CCCC2[C@]2(O)O[C@](NC(=O)[C@@H]3C=C4c5cccc6[nH]c(Br)c(c56)C[C@H]4N(C)C3)(C(C)C)C(=O)N12 (stereo partly drawn) | -15% | nt
NCCC(=O)N[C@@H](Cc1cnc[nH]1)C(=O)O | -6% | 0.4%[11.4 µM]
O=S(=O)(c1ccccc1)N1CCN(S(=O)(=O)c2ccccc2)c2ccccc21 | -9%[10.9 µM] | 0.6%[11.4 µM]
CCCCOCCOCCOCc1cc2c(cc1CCC)OCO2 | -8% | 0.4%
Cc1cc(C)c(N)cc1C | -2% | 0.9%
CC(=O)Nc1ccc(S(=O)(=O)NCCN2CCOCC2)cc1 | -3% | 0.5%
Cc1cccnc1 | 12% | 1.1%
CO[C@]12C[C@@H](COC(=O)c3cncc(Br)c3)CN(C)[C@@H]1Cc1cn(C)c3cccc2c13 | -6% | nt
COC(=O)C1=C(CN2CCCc3ccccc32)NC(=O)NC1c1ccc(F)cc1 (stereo not drawn) | -10% | ?
CCOC(=O)C(CCc1ccccc1)NC1CCc2ccccc2N(CC(=O)O)C1=O (stereo not drawn) | -8% | nt
Nc1ncn(C2OC(CO)C(O)C2O)c(=O)n1 (stereo not drawn) | -27% | nt
C/C=C1\C(=O)C[C@H]2[C@@H]3CCC4=CC(=O)CC[C@]4(C)[C@H]3CC[C@]12C | -8% | 5.7%
COc1ccc(Cl)cc1NC(=O)C1CCCN(c2cc(C)nc3ncnn23)C1 (stereo not drawn) | -12% | 0.3%
CC(=O)[C@]1(O)CCC2C3CCC4=CC(=O)CC[C@@]4(C)C3CC[C@]21C (stereo partly drawn) | -18% | nt
C[C@H]1CS(=O)(=O)CCN1/N=C\c1ccc([N+](=O)[O-])o1 | 6%[16.8 µM] | 0.8%[25.6 µM]
COc1ccc(C[C@H](N)C(=O)N[C@@H]2[C@H](O)[C@H](n3cnc4c(N(C)C)ncnc43)O[C@@H]2CO)cc1 | -3%[16.8 µM] | 1.5%[25.6 µM]
O=C(O)CCCCC1SCC2NC(=O)NC21 (stereo not drawn) | -19% | nt
CN1[C@H]2CC(OC(=O)[C@@H](CO)c3ccccc3)C[C@H]1[C@H]1O[C@H]12 (stereo partly drawn) | 4%[16.8 µM] | -1.3%[25.6 µM]
COc1ccnc(CS(=O)c2nc3ccc(OC(F)F)cc3[nH]2)c1OC (stereo not drawn) | -15% | nt
Cc1cccc(C)c1[N+](=O)[O-] | -4% | 0.4%
CC(C)Sc1nc(O)c(Cc2ccccc2)c(=O)[nH]1 | 0% | -0.1%
C[C@@H]1Cc2ccccc2N1NC(=O)c1ccc(Cl)c(S(N)=O)c1 (stereo partly drawn) | -7%[16.8 µM] | -0.7%[25.6 µM]
CCN(CC)S(=O)(=O)c1ccc2c(c1)N(CC(=O)NCc1ccccc1)C(=O)CS2 | 13%[10.9 µM] | 0.9%
Nc1ccc(O)c([N+](=O)[O-])c1 | 0% | -0.1%
CC(=O)OCC(=O)[C@]1(O)C(C)CC2C3CCC4=CC(=O)C=C[C@@]4(C)[C@]3(F)C(O)C[C@@]21C (stereo partly drawn) | -17% | nt
Cc1nnc(SCC2=C(C(=O)O)N3C(=O)[C@@H](NC(=O)Cn4cnnn4)[C@H]3SC2)s1 | -8%&-7% | nt
CCOC(=O)C1=C(COCCN)NC(C)=C(C(=O)OC)C1c1ccccc1Cl (stereo not drawn) | 13% | nt
CC1CCC(C(C)C)[C@H](O)C1 (stereo partly drawn) | 6% | nt
CC(=O)OCC1=C(C(=O)O)N2C(=O)[C@@H](NC(=O)CSc3ccncc3)[C@@H]2SC1 | -8%[16.8 µM] | 1.3%[25.6 µM]
NCCCC[C@H](N[C@@H](CCc1ccccc1)C(=O)O)C(=O)N1CCC[C@H]1C(=O)O | 1%[16.8 µM] | 0.3%[25.6 µM]
CC(=O)CC(c1ccccc1)C1C(=O)Oc2ccccc2C1=O (stereo not drawn) | -10% | nt
CCOc1cc(C2C(C(=O)OC(C)C)=C(C)N=C3SCCC(=O)N32)ccc1OC(C)=O (stereo not drawn) | -3% | -0.5%
C/C=C(/C)C(=O)OC1C(OC(C)=O)[C@@]2(CO)C(O)C[C@@]3(C)C(=CCC4[C@@]5(C)CCC(OC6OC(C(=O)O)[C@@H](O[C@@H]7OC(CO)C(O)C(O)C7O)C(O)[C@H]6O[C@@H]6OC(CO)C(O)C(O)C6O)[C@](C)(CO)C5CC[C@@]43C)C2CC1(C)C (stereo partly drawn) | -10% | nt
